Source: PubChem
A1 inh: inhibitors of the anti-apoptotic protein A1, read as caspase activation; AID 2462; MEF A1-2A-BIM cells, Caspase-Glo 3/7 luminescence, 3 h; percent of clofoctol response, vehicle zero; caspase activation, % (concentration not given with the values); 330,000 tested, 0.066% active;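 active means over half of replicate activation scores above 10%, or exactly half above 10 with the replicate mean above 10; inconclusive means replicate mean below 10 yet half the replicates above 10; inactive means over half of replicates below 10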;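 further: wells of about 30 µL received 50 nL stock; many hits fall short of the cut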
Vif A3G: inhibitors of Vif binding to APOBEC3G peptide, primary screen, biochemical, TR-FRET, GST-Vif 1-94, biotin-A3G peptide, dose response retest (AID 1117319); TR-FRET GST-Vif / biotin-A3G peptide binding; higher % means a stronger effect; test concentration not given here; strong numbers were not always called active; inhibition, %; hits with a dose series show IC50 in µM; 260,000 tested, 0.57% active;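 active means above the screen mean plus three standard deviations and confirmed in dose response; inconclusive means results disagree or hit not tested in dose response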;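 further: Vif residues 1-94 fused to GST binding biotinylated APOBEC3G peptide 110-148; 0% = full assay without inhibitor and 100% = GST in place of GST-Vif; retest series ran down from 100 µM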
HNF4A DNA FP: change in binding of human HNF4 alpha to DNA | P41235 | HNF4a-FITC DNA binding, fluorescence polarization, 1 h | activity change, % at 10 µM | 360,000 tested, 0.3% active; in the data active means activity change above about 30%, passing the limit was not always enough;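 further: controls were the assay level and a saturating level of protein; the project sought stronger binding though the title names inhibitors; some compounds called inactive have numbers as strong as hits; positive values seem to mean higher polarization but the record does not say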
Target sequence (P41235 whole entry, looked up): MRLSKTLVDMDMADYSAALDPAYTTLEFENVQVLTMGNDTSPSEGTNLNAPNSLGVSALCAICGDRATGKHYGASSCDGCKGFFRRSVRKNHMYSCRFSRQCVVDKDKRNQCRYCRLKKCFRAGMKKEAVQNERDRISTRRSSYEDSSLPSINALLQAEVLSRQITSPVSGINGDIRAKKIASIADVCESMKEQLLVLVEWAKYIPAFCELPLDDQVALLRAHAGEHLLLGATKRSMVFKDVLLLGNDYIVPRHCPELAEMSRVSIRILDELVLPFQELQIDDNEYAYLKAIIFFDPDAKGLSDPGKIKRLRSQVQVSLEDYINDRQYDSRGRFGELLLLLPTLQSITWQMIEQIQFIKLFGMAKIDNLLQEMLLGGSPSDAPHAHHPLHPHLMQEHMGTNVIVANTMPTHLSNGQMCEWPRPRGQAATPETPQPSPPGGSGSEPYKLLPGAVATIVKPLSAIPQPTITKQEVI
Beta2AR agonist: activates human beta-2 adrenergic receptor causing internalization. Am2.2-beta2AR cells, FAP receptor internalization, flow cytometry; reference of the scale not given here. response, % (test concentration not listed). 340,000 tested, 0.43% active;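 active means response above a set limit, near 3 SD of response in nonfluorescent compounds, cut at about 42% in these data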;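 further: stock transfer was 100 nL into about 11 µL; a reference agonist was the positive control; negative values mostly stem from fluorescent compounds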
Target sequence (P07550 whole entry, looked up): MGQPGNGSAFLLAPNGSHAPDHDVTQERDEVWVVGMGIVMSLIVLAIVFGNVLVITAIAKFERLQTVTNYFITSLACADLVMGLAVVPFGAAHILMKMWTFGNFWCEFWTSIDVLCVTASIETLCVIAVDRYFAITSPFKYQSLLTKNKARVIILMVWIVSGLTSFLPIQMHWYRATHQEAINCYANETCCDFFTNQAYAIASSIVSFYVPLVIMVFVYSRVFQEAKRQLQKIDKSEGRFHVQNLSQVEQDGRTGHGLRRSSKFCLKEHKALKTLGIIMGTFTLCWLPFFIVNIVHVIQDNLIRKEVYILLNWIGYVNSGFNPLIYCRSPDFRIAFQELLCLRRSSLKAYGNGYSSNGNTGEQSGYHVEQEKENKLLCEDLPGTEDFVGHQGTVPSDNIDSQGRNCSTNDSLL
UCH37 DUB inh: human UCH37 deubiquitinating enzyme inhibition. Q9Y5K5. purified proteasome/UCH37, Ub-AMC cleavage fluorescence. inhibition, % (concentration not given with the values). 330,000 tested, 0.33% active;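 active means mean of two replicates above 20%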;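 further: 0% = compound-free wells with enzyme and 100% = wells lacking proteasome; stock transfer was 100 nL into about 20 µL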
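system = Proteasome-associated human UCH37 deubiquitinase | amount = 0.15 nM proteasome as dispensed | medium = pH 7.4 Tris-HCl (50 mM) with ovalbumin, ATP-MgCl2, DTT | incubation = 30 min preincubation with enzyme, 25 min cleavage at room temperature | detection = AMC fluorescence 355/460 nm | read-out basis = percent inhibition | controls = no-proteasome and no-compound wells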
LANA-H2B inh: blocks KSHV LANA binding to histone H2A/H2B | Q9QR71 | 320,000 tested, 0.6% active | inhibition, % (concentration not given with the values) | cell-free LANA-H2A/H2B peptide, fluorescence polarization; in the data active means inhibition mostly above about 10%, no sharp cut-off; inactive means mostly below about 6.7%;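 further: stock transfer was 7.5 nL into about 10 µL; 0% = median of vehicle wells and 100% = median of positive control wells; one replicate is shown; the record names a cut of 25% in any replicate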
Ecoli growth: E. coli growth inhibition. OD600 absorbance (concentration not given with the values). Escherichia coli growth, OD600, 23 h; hits give low values. 330,000 tested, 0.21% active;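 active means OD600 absorbance below the run mean of sample wells minus 3.6 SD, in any replicate, cut at about 0.56 in these data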;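 further: stock transfer was 300 nL into about 60 µL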
Numbers without * were called inactive; ? = inconclusive; · = no result given.

SMILES | A1 inh | Vif A3G | HNF4A DNA FP | Beta2AR agonist | UCH37 DUB inh | LANA-H2B inh | Ecoli growth
c1ccc2[nH]c(CN3CCN(c4ncnc5c4oc4ccccc45)CC3)nc2c1 | 0.3 | 5% | 1.4 | 12 | 7.6 | -1.0 | 0.72
C/C(=N\NC(=O)C(=O)Nc1ccc(C)c(Cl)c1)c1ccncc1 | -2.3 | · | -1.9 | -4 | · | -7.1 | ·
O=C(Cc1c(O)c2ccccc2oc1=O)c1ccc(F)cc1 | -5.9 | 0% | 0.1 | -6 | 2.0 | 1.2 | 0.7
O=C1NC(=O)C(c2ccc(F)cc2)N1 (stereo not given) | -1.4 | · | 1.7 | 2 | -1.3 | 1.2 | 0.7
Cc1cc(C(=O)NC2CCCc3c2cnn3-c2ccc(C)c(C)c2)n(C)n1 (stereo not given) | -0.3 | · | -0.1 | 10 | 7.1 | 2.7 | 0.71
Cc1cc(=O)n2nc(N3CCC(C(=O)NC(C)c4ccccc4)CC3)sc2n1 (stereo not given) | 0.2 | 3% | -6.0 | -1 | -0.5 | 3.0 | 0.67
O=C(CCc1ccc(S(=O)(=O)N2CCOCC2)cc1)N1CCCC1 | 1.0 | 3% | 4.1 | 0 | 3.8 | 6.2 | 0.68
COc1ccc(N2CCN(C(=O)CSc3nnc4c5cc(C)ccc5n(C)c4n3)CC2)cc1 | 0.0 | 2% | 0.8 | -5 | -0.9 | -1.6 | 0.67
CCCCCCCCCCCC1=C(O)C(=O)C=C(O)C1=O | 0.1 | · | -31 | -3 | 4.2 | -0.6 | 0.62
COc1ccc(N(C(=O)c2snc(C(N)=O)c2N)C(C(=O)NCc2ccc(F)cc2)c2ccc(O)cc2)cc1 (stereo not given) | -0.2 | · | -2.0 | 9 | -26 | -3.3 | 0.66
O=C(COC(=O)c1ccc(Cl)c(S(=O)(=O)N2CCc3ccccc3C2)c1)Nc1ncc(Cl)cc1Cl | -0.3 | -58% | -0.5 | -6 | 0.4 | 2.8 | 0.74
COc1ccc(-c2nnc(SC(C)C(=O)NC3CC3)o2)cc1 (stereo not given) | -0.1 | 11% | 0.5 | 6 | 0.2 | -7.1 | 0.64
O=C(CSc1n[nH]c(-c2cccnc2)n1)Nc1ccc([N+](=O)[O-])cc1Br | -0.5 | · | -1.5 | -4 | 1.8 | 2.2 | 0.65
COc1ccc(CCNC(=O)CSc2nc3[nH]ncc3c(=O)n2-c2cccc(C(F)(F)F)c2)cc1OC | -1.0 | -2% | -2.3 | -1 | 2.5 | 11 | 0.69
COc1ccc(OC)c(-n2c(=S)[nH]c3cc(C(=O)N4CCN(c5ccccc5)CC4)ccc3c2=O)c1 | -0.5 | -5% | 2.0 | 12 | 7.0 | 0.1 | 0.7
N#Cc1cccc(NC(=O)COC(=O)C2CCC2)c1 | 0.4 | -4% | 2.8 | -1 | 2.9 | -1.9 | 0.69
CN1C(=O)C2(C(C#N)=C(N)Oc3n[nH]c(-c4ccc(Cl)cc4)c32)c2ccccc21 (stereo not given) | 0.4 | 21% | -2.1 | -6 | 1.0 | 0.8 | 0.71
Cc1c(NC(=O)c2cc(C(C)C)on2)c(=O)n(-c2ccccc2)n1C | 0.7 | 2% | -2.4 | -6 | -0.2 | 1.6 | 0.72
Cc1ccc(-c2cc3onc(-c4ccccc4)c3c(=O)n2C)cc1 | -6.5 | · | -0.9 | 0 | 1.0 | 5.2 | 0.68
CCN1CNC(=S)N(c2cc(C)ccc2C)C1 | -1.1 | 1% | 0.3 | -5 | 0.7 | 2.1 | 0.73

An excerpt of these results, field by field:
Compound: N#Cc1cccc(NC(=O)COC(=O)C2CCC2)c1
- A1 inh = 0.4
- Vif A3G = -4%
- HNF4A DNA FP = 2.8
- Beta2AR agonist = -1
- UCH37 DUB inh = 2.9
- LANA-H2B inh = -1.9
- Ecoli growth = 0.69
Compound: CN1C(=O)C2(C(C#N)=C(N)Oc3n[nH]c(-c4ccc(Cl)cc4)c32)c2ccccc21 (stereo not given)
- A1 inh = 0.4
- Vif A3G = 21%
- HNF4A DNA FP = -2.1
- Beta2AR agonist = -6
- UCH37 DUB inh = 1.0
- LANA-H2B inh = 0.8
- Ecoli growth = 0.71
Compound: Cc1c(NC(=O)c2cc(C(C)C)on2)c(=O)n(-c2ccccc2)n1C
- A1 inh = 0.7
- Vif A3G = 2%
- HNF4A DNA FP = -2.4
- Beta2AR agonist = -6
- UCH37 DUB inh = -0.2
- LANA-H2B inh = 1.6
- Ecoli growth = 0.72
Compound: Cc1ccc(-c2cc3onc(-c4ccccc4)c3c(=O)n2C)cc1
- A1 inh = -6.5
- Vif A3G = ·
- HNF4A DNA FP = -0.9
- Beta2AR agonist = 0
- UCH37 DUB inh = 1.0
- LANA-H2B inh = 5.2
- Ecoli growth = 0.68

New compounds follow:
SMILES | A1 inh | Vif A3G | HNF4A DNA FP | Beta2AR agonist | UCH37 DUB inh | LANA-H2B inh | Ecoli growth
CSc1ccccc1C(=O)Nc1ccc2c(c1)CCC2 | -6.5 | -8% | -3.1 | -12 | -0.5 | -0.3 | 0.7
COc1ccc(N2CCN(C(=O)c3ccc(Cl)c(S(=O)(=O)N4CCCC4)c3)CC2)cc1 | -0.6 | ? | -1.2 | 6 | -0.9 | 2.9 | 0.61
COc1ccc(NC(=O)c2cc(C)nn2-c2ccccc2)cc1 | 0.9 | -7% | 0.3 | -10 | 0.4 | -5.0 | 0.65
COc1ccc(CC(NC(C)=O)C(=O)NC2CCN(c3nnnn3-c3ccccc3)CC2)cc1 (stereo not given) | -0.1 | -4% | 0.3 | -5 | 4.5 | 1.4 | 0.7
C=C(C1=CCN(S(=O)C(C)(C)C)[C@H]1CCO)c1ccccc1 (stereo not given in full) | · | -5% | 2.9 | 15 | 1.3 | · | 0.68
O=C(CSc1n[nH]c(=O)n1C1CC1)N1N=C(c2ccc(Cl)cc2)CC1c1ccco1 (stereo not given) | -1.0 | · | 1.5 | 1 | 0.8 | -7.8 | 0.69
Cc1ccc(OCCC(=O)OCC(=O)NNC(=O)c2ccccc2)cc1 | -0.2 | 3% | -0.7 | 0 | 4.3 | 1.5 | 0.67
Cc1ccc(-c2nnn(CC(=O)N3CCCCC3)n2)cc1 | 0.0 | · | 1.1 | -10 | -0.2 | 0.5 | 0.64
COc1ccc(C(=O)NC(C(=O)NCCc2ccc3c(c2)OCCO3)C(C)C)cc1 (stereo not given) | 0.2 | 7% | 1.5 | 4 | -2.9 | 5.8 | 0.66
Cc1cccc(N2CCN(C(=O)CSc3nnnn3C3CC3)CC2)c1C | -0.2 | -4% | 0.5 | -2 | 4.6 | 0.3 | 0.66
COC(=O)CCC(=O)Nc1ccccc1C(=O)Nc1ccccc1 | -0.8 | 1% | -1.0 | -4 | 5.7 | -1.6 | 0.64
S=c1[nH]nc(C2CCCCC2)n1/N=C/c1ccccn1 | -0.4 | · | 23 | -1 | · | -3.3 | ·
COc1ccc(OC(=O)N2CCOCC2)cc1 | 0.4 | · | 0.3 | -8 | 2.3 | 3.7 | 0.69
COc1cc(/C=C2\N=C(c3ccccc3)OC2=O)ccc1OC(C)=O | 0.0 | -3% | -3.0 | -10 | 2.3 | 4.9 | 0.68
Cc1ccc(CN2CCN(Cc3ccccc3C(F)(F)F)CC2)cc1 | -0.4 | -5% | -1.9 | 4 | 4.8 | -6.2 | 0.61
CSc1ncccc1C(=O)OCC(=O)c1ccc(Br)s1 | 0.2 | 1% | 1.4 | 2 | 4.6 | 2.9 | 0.71
COc1ccc(N(Cc2cc(=O)[nH]c3ccccc23)C(=O)c2ccco2)cc1 | 1.0 | 3% | 3.7 | -7 | 5.9 | 3.9 | 0.66
CCOC(=O)N1CC=C2C(C#N)=C(N)C(C#N)(C#N)[C@H](c3cccs3)C2C1 (stereo not given in full) | 0.0 | · | 3.9 | 1 | 0.2 | -3.9 | 0.71
CC(=O)c1ccc(NC(=S)N(Cc2ccccc2)C(C)C2CC2)cc1 (stereo not given) | -0.5 | · | 0.1 | -6 | 4.4 | 4.8 | 0.68
Cc1ccc(NC(=O)N/C=C/c2ccco2)c(C)c1 | -0.1 | ? | 1.4 | 1 | -1.0 | -2.9 | 0.69
CC(=O)OCCCNc1cc(Sc2nc3ccccc3s2)c2nonc2c1[N+](=O)[O-] | ? | 53µM* | 1.3 | -242 | · | -17 | ·
O=C(Cc1c[nH]c2ccccc12)Nc1ccc(N2CCOCC2)cc1 | 0.9 | · | 0.8 | 8 | -0.2 | -1.2 | 0.68
COc1cccc(S(=O)(=O)NCc2ccc(C(=O)Nc3cccc(Cl)c3)cc2)c1 | -0.5 | -2% | -1.4 | 14 | 4.0 | 1.6 | 0.7
O=C(COc1ccc(CO)cc1Cl)Nc1ccc(F)cc1 | -3.3 | ? | 3.7 | -8 | 1.1 | 5.7 | 0.62
O=C(O)Cc1sc(Nc2ccc(Cl)cc2)nc1-c1cccs1 | · | · | · | -5 | -2.0 | · | 0.69
Cc1ccc(C)c(N2CCN(C(=O)c3ccc(NC4=NC5CS(=O)(=O)CC5S4)cc3)CC2)c1 (stereo not given) | · | · | 3.0 | -4 | 1.5 | -6.6 | 0.81
COc1ccc(N2CCCn3c2nc2c3c(=O)n(Cc3ccccc3)c(=O)n2C)c(OC)c1 | 0.2 | 3% | 1.0 | 5 | 2.8 | -4.1 | 0.7
COc1ccccc1-c1nnc(SCC(=O)O)n1C | 0.0 | 0% | 0.9 | -25 | 2.8 | 3.7 | 0.69
Cc1cc(C)nc(Nc2cccc(Cl)c2)n1 | 0.6 | · | 2.5 | 3 | 1.6 | 3.2 | 0.69
CCCC(c1nnnn1Cc1ccccc1)N1CCC(C(N)=O)CC1 (stereo not given) | 0.2 | 3% | 0.6 | -1 | 0.8 | 1.1 | 0.74
COc1ccccc1N1CCN(S(=O)(=O)CC23CCC(CC2=O)C3(C)C)CC1 (stereo not given) | 0.6 | 10% | 1.8 | 2 | 3.0 | 3.3 | 0.68
O=C1NCCn2ccc(=O)cc21 | -0.9 | 2% | -2.3 | 5 | 2.7 | 0.8 | 0.68
O=C(c1ccsc1)N1CCCC(Nc2ccc(F)c(F)c2)C1 (stereo not given) | 1.5 | · | 1.6 | 5 | 3.5 | -2.8 | 0.73
CCOC(=O)c1sc(/N=C/Nc2nc(C)c(C(=O)OCC)s2)nc1C | · | 10% | 1.4 | 1 | · | · | ·
C/C(=N\NC(=O)CNc1cccc2ccccc12)c1ccccc1 | -0.5 | 4% | 2.4 | 6 | · | 0.5 | ·
COc1cc(OC)cc(C(=O)NCCc2ccc(OC)c(OC)c2)c1 | -0.4 | · | 1.0 | 2 | 3.4 | -2.5 | 0.65
CC(NC(=O)C1CCC1)c1ccc(Br)cc1 (stereo not given) | 0.3 | -4% | -1.4 | 1 | 1.2 | 5.5 | 0.67
Cc1ccc(C(=O)N2N=C(CC(C)C)CC2(O)C(F)(F)F)o1 (stereo not given) | 1.0 | -1% | 2.8 | 2 | 3.3 | 3.6 | 0.66
Fc1ccc(-c2cn3ccccc3n2)cc1 | -7.4 | -2% | -1.4 | 8 | -30 | -8.5 | 0.65
CCOC(=O)C1CCN(S(=O)(=O)c2ccc3c(c2)CC(C)N3C(=O)C2CCC2)CC1 (stereo not given) | -0.3 | · | -0.6 | 2 | 1.4 | 4.4 | 0.69
Cc1cc(C)nc(SC2CCOC2=O)n1 (stereo not given) | -0.9 | 2% | -0.8 | 2 | 0.4 | -3.6 | 0.69
COC(=O)c1ccc(N)cc1O | 0.9 | 0% | 0.8 | 1 | -1.2 | 3.6 | 0.69
C=CCN1C(=O)C(CC(=O)Nc2ccc(OC)cc2)SC1=Nc1ccc(S(N)(=O)=O)cc1 (stereo not given) | 0.6 | 0% | -0.8 | -1 | 1.8 | 2.0 | 0.65
O=C(NC1CCCCC1)C(c1ccncc1)N(C(=O)Cn1nnc(-c2cccs2)n1)C1CCCC1 (stereo not given) | 0.1 | 22% | 1.5 | -17 | 0.3 | 2.2 | 0.69
